ALR H2O2 inh: blocks human ALR sulfhydryl oxidase activity; AID 485317; inhibition, % (concentration not given with the values); P55789; actives 3.8% (n = 290,000); purified ALR, DTT oxidation, H2O2 HRP-luminol luminescence;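 active = mean and each replicate at 75% or more; inconclusive = only one of the two met; inactive = neither met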;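 note: stock transfer was 7.5 nL into about 7.5 µL; 0% = neutral wells and 100% = wells with inactivated enzyme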
E coli growth: E. coli growth inhibition; OD600 absorbance (concentration not given with the values); Escherichia coli growth, OD600, 23 h; active compounds read low; AID 1053175; actives 0.21% (n = 330,000);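 active = OD600 absorbance below the run mean of sample wells minus 3.6 SD, in any replicate, cut at about 0.56 in these data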;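 note: stock transfer was 300 nL into about 60 µL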
FGF22 binding: FGF22 (human) thermal shift binding; Q9HCT0; recombinant FGF22 thermal shift, SYPRO orange fluorescence; percent of sucrose octasulfate shift, DMSO zero; calls only at 9.99 µM; actives 1.5% (n = 340,000); AID 651658;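 active = melting point raised past a set limit in the mean and every replicate; inconclusive = no clear call; three in four hits are not shown here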
Target sequence (Q9HCT0 whole entry, looked up): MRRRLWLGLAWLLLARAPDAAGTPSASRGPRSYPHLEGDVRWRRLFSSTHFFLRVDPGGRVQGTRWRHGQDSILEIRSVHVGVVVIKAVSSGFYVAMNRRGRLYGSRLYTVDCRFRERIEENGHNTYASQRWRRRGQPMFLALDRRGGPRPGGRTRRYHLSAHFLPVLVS
AF4-AF9 inh: blocks AF4 peptide binding to human AF9 | P42568 | AlphaScreen, biotin-AF4 peptide binding to FLAG-AF9 | inhibition, % at 10 µM | actives 0.47% (n = 350,000) | AID 651704;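 active = every replicate reaching a set inhibition limit, whatever the replicate mean, cut at about 25% in these data; inconclusive = mean inhibition reaches that limit but some replicates miss it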;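 note: 0% = plate neutral control median and 100% = total signal loss; the record names both 10 and 1 µM as test concentration; the first replicate is given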
Target sequence (P42568 whole entry, looked up): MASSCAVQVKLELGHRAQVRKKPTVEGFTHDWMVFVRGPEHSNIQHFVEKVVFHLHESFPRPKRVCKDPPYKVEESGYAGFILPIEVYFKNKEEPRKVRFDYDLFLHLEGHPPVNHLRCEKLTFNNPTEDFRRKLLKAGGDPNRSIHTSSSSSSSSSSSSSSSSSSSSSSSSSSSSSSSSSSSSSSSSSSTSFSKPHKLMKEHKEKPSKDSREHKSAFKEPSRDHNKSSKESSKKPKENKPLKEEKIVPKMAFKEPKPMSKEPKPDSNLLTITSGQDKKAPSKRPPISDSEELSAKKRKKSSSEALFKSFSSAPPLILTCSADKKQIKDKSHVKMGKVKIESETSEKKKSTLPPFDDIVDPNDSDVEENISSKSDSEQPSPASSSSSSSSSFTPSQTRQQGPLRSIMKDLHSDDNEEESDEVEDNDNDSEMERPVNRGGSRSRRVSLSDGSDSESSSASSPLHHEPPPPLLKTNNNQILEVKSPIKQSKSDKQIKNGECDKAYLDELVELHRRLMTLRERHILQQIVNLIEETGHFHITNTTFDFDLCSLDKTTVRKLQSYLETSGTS
Vif A3G: inhibitors of Vif binding to APOBEC3G peptide, primary screen, biochemical, TR-FRET, GST-Vif 1-94, biotin-A3G peptide, dose response retest (AID 1117319); TR-FRET GST-Vif / biotin-A3G peptide binding; higher % means a stronger effect; test concentration not given here; strong numbers were not always called active; one-dose inhibition, %; IC50 in µM for titrated hits; actives 0.57% (n = 260,000);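 active = above the screen mean plus three standard deviations and confirmed in dose response; inconclusive = results disagree or hit not tested in dose response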;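 note: Vif residues 1-94 fused to GST binding biotinylated APOBEC3G peptide 110-148; 0% = full assay without inhibitor and 100% = GST in place of GST-Vif; retest series ran down from 100 µM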
Ecoli rRNA inh: inhibits bacterial ribosomal RNA function over humanized ribosomes; E. coli WT GFP vs humanized-ribosome RFP mutants, fluorescence, 24 h; active compounds read low; DMSO median 0, no signal -100; GFP signal change (wild-type ribosome), % (no concentration beside the values); actives 1.6% (n = 350,000); AID 720706;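 active = significant combined selectivity score with lowered wild-type GFP, culture density cut under 30%, mutant RFP and density less affected; inactive = any of these conditions unmet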; note: one replicate is shown; some compounds called inactive have numbers as strong as hits
HNF4A DNA FP: change in binding of human HNF4 alpha to DNA; P41235; HNF4a-FITC DNA binding, fluorescence polarization, 1 h; activity change, % at 10 µM; actives 0.3% (n = 360,000); in the data active = activity change above about 30%, passing the limit was not always enough;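 note: controls were the assay level and a saturating level of protein; the project sought stronger binding though the title names inhibitors; some compounds called inactive have numbers as strong as hits; positive values seem to mean higher polarization but the record does not say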
Ecoli rRNA inh OD600: also measured in Ecoli rRNA inh; calls as there; OD600 change, %; measured here: OD600 growth;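 optical density of the mix in the first replicate; 0 = DMSO median and -100 = no signal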
Ecoli rRNA inh RFP: also measured in Ecoli rRNA inh; calls as there; RFP signal change, %; measured here: RFP humanized mutant strains;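 first replicate; 0 = DMSO median and -100 = no signal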
Active calls of the source: *; i = inactive; ? = inconclusive; . = no result given. An excerpt; the hit share may differ from the screen's.

SMILES	ALR H2O2 inh	E coli growth	FGF22 binding	AF4-AF9 inh	Vif A3G	Ecoli rRNA inh	Ecoli rRNA inh OD600	Ecoli rRNA inh RFP	HNF4A DNA FP
Cc1oncc1C(=O)NC1CCCCC1	0	0.69	i	-2.3	.	8	12	1.5	-0.8
O=C(OCC(=O)N1CCc2ccccc2C1)c1c(F)cccc1Cl	.	0.67	i	-3.2	.	-12	-12	-1.0	0.8
CC(=O)c1ccc(-c2ccc(C(=O)NC3CCCCCC3)o2)cc1	98*	0.7	i	-2.5	3%	12	-4	-2.0	-4.7
Cc1ccc(/C=N/N2CCN(C3c4ccccc4-c4ccccc43)CC2)o1	0	.	i	.	-2%	2	4	3.3	2.2
Cc1ccc(C)c(S(=O)(=O)N2CCN(C(=O)CNC(=O)c3ccc4ccccc4c3)CC2)c1	1	0.7	i	-1.3	-1%	-35	-43	-4.4	4.2
CC1(C)CC(=O)C(C=NCCN2CCN(C(=S)Nc3ccccc3)CC2)=C(O)C1	-7	0.69	.	.	-3%	.	.	.	4.1
CCOC(=O)C(Oc1ccc(=O)[nH]n1)C(C)=O (stereo not drawn)	14	0.68	.	.	4%	.	.	.	-3.1
CC(=O)c1ccc(N2CCN(CC(=O)Nc3cc(C)on3)CC2)cc1	1	0.7	i	2.3	-10%	17	10	-0.4	7.7
CO/C([O-])=N/c1c[n+](-c2ccc(Cl)cc2)no1	-66	0.67	.	.	11%	.	.	.	6.7
Cc1oc2cc3oc(=O)c(CC(=O)NCCC(=O)O)c(C)c3cc2c1C	.	0.68	i	2.3	2%	10	7	2.1	-1.5
COc1ccc(C(=O)N/C(=C\c2ccco2)C(=O)OCc2ccco2)cc1	11	0.68	i	4.3	20%	-3	-5	4.6	2.2
Cc1nc2c(C)cccn2c(=O)c1NC(=O)c1ccco1	.	0.69	i	-1.2	-2%	-4	0	-2.4	-0.8
COc1ccc(C(=O)NCc2cn3ccccc3n2)cc1	.	0.68	.	.	24%	.	.	.	-1.5
CCCN1CCC(NC(=S)Nc2ccc(OC)c(OC)c2)CC1	.	0.71	i	-4.6	-3%	20	17	-2.0	4.4
C[C@@H]1CN([C@H](C)CO)S(=O)(=O)c2ccc(C#Cc3ccccc3)cc2O[C@@H]1CN(C)S(=O)(=O)c1cn(C)cn1	.	.	i	-1.6	.	0	-1	2.8	.
CC(C)CC1NC(=O)N(CC(=O)c2ccc3c(c2)OCCO3)C1=O (stereo not drawn)	-10	0.72	.	.	23%	.	.	.	1.1
Nc1cc(=O)[nH]c(SCC(=O)Nc2cc(S(=O)(=O)N3CCCCCC3)ccc2Cl)n1	-10	0.65	i	-2.7	-7%	13	9	7.0	-5.7
CN(C)c1cccc2c(S(=O)(=O)N3CCOCC3)cccc12	-4	0.75	.	.	6%	.	.	.	0.3
Cn1c2ccccc2c2nnc(SCC(N)=O)nc21	-16	0.64	i	-3.5	-3%	8	13	-1.9	-0.1
O=C(O)Cc1ccc(C(=O)CSc2ccccc2)s1	98*	0.61	i	1.5	.	-13	-1	4.3	5.2
CC(C(=O)NC1=NCCS1)(C(F)(F)F)C(F)(F)F	-2	0.68	.	.	-4%	.	.	.	-0.8
C[C@@H](NC(=O)C[C@@H]1CC[C@H]2[C@@H](COC[C@H](O)CN2C)O1)c1ccccc1	.	.	i	-1.0	.	4	9	-1.5	.
COCCNC(=O)C1(C)CCCN(C(=O)c2ccc3ccccc3c2)C1 (stereo not drawn)	.	.	i	-1.2	.	12	12	1.3	-0.3
CCS(=O)(=O)Nc1ccc2c(c1)C(=O)N(C)C[C@H](OC)[C@H](C)CN(C(=O)C1CC1)[C@@H](C)CO2	.	.	i	0.6	.	1	2	-2.7	.
O=C(Cc1ccccn1)N[C@@H]1C=C[C@H](CC(=O)N2CCCCC2)O[C@H]1CO	.	.	i	-2.3	.	-2	1	0.4	.
c1ccc(-c2noc(C3CCCCC3)n2)nc1	-5	0.7	.	.	-9%	.	.	.	2.0
C/C(=N\NC(=O)C(N)=O)c1cccc([N+](=O)[O-])c1	11	.	i	-1.6	16%	15	21	-1.1	2.2
COc1ccc(/C=C/C(=O)Nc2ccc(C(N)=O)cc2)cc1OC	-2	0.65	i	-2.4	6%	1	-1	2.8	0.9
Cc1cc(C(=O)COc2cccc3cccnc23)c(C)n1C	-25	0.64	.	.	?	.	.	.	-39
CO[C@@H]1CN(C)C(=O)c2cc(NC(=O)c3cnccn3)ccc2OC[C@H](C)N(C(C)=O)C[C@H]1C	.	.	i	-1.5	.	3	9	-0.7	.
C=CCn1c(C(C)NC(=O)C(C)(C)C)nc2ccccc21 (stereo not drawn)	1	0.68	.	.	4%	0	6	-0.2	-0.3
CCOc1ccccc1N1C(=O)CN(Cc2ccc(OC)c(OC)c2)C1=S	-7	0.68	i	-0.3	2%	-10	-4	1.6	0.5
COc1ccc(OC)c(NC(=O)CCN2CCN(c3ccccc3)CC2)c1	92*	0.69	.	.	4%	.	.	.	-1.0
O=C(Nc1cccc2ccccc12)/C(=C/c1cccc([N+](=O)[O-])c1)NC(=O)c1cccs1	-27	0.65	.	.	?	.	.	.	0.1
CC(C)NC(=O)N(C)C[C@@H]1OCCCC[C@@H](C)Oc2ccc(NC(=O)CCCCCC(=O)Nc3ccccc3N)cc2C(=O)N([C@H](C)CO)C[C@@H]1C	.	.	i	3.2	.	-1	-2	-1.9	.
COc1ccc(CCC(=O)N/N=C/c2ccc3c(c2)OCO3)cc1	14	.	i	5.6	.	-1	7	-2.1	1.6
Cc1ccc(-c2nc(C(=O)O)cs2)cc1	-4	0.69	i	-6.0	-12%	-21	-14	4.9	2.0
O=C(NCCS(=O)(=O)c1ccc(Br)cc1)c1ccc(Cl)cc1	0	0.65	i	-1.4	.	.	.	.	-1.6
CSc1nc(C)c2c(n1)N(c1ccc(F)cc1)CC2	-3	0.69	.	.	11%	.	.	.	-0.3
COCCN1CCC(CNCc2cn(-c3cc(C)ccc3C)nc2-c2ccccc2)C1 (stereo not drawn)	-3	0.67	i	11	10%	5	8	0.3	-0.4
CN(C)S(=O)(=O)c1ccc(-c2csnn2)s1	-5	0.71	.	.	-3%	.	.	.	-1.0
O=C(NCC(F)(F)F)[C@@H]1[C@@H](CO)[C@@H]2Cn3c(cccc3=O)[C@H]1N2C(=O)C1CCC1	.	.	i	-3.1	.	3	11	-4.0	.
Cc1ccsc1CN(C)C(=O)C(NC(=O)c1cccc(S(=O)(=O)N2CCOCC2)c1)C(C)C (stereo not drawn)	-4	0.71	i	1.5	8%	.	.	.	20
CCNC(=O)C1(C)CCCN1C(=O)c1cnc2ccccc2n1 (stereo not drawn)	.	.	i	-0.7	.	14	28	-0.2	1.4
C[C@@H]1CCCCO[C@H](CN(C)Cc2ccccc2)[C@@H](C)CN([C@H](C)CO)C(=O)c2cc(NC(=O)Nc3ccc(F)cc3)ccc2O1	.	.	i	3.7	.	0	3	-1.3	.
CN1CCC(N(C)S(=O)(=O)c2ccc(NC(=O)COc3ccc(F)cc3)cc2)CC1	-1	0.63	i	-2.9	.	11	19	-0.9	2.7
COc1ccc(N2CCN(C(=S)NC(=O)c3cccs3)CC2)c([N+](=O)[O-])c1	-17	0.66	i	7.3	4%	-18	-12	1.7	4.6
COC(C/C=C/[C@H](O)COCc1ccccc1)OC	.	.	i	.	.	10	8	3.1	-0.7
Cn1c(SCC(=O)NCCc2ccccc2)ncc(C(=O)Nc2ccccc2)c1=O	0	0.68	i	0.5	-1%	8	12	-1.0	0.6
Cn1c(SCC(=O)NC2CCCC2)nnc1-c1cccs1	5	0.69	i	-0.3	.	6	2	-1.7	-0.3

High-throughput results: PubChem BioAssay, several laboratories
